ClpP mod = qHTS Assay for Activators of ClpP | purified B. subtilis ClpP, FRET peptide cleavage, 20 min | ATP-dependent Clp protease proteolytic subunit (Bacillus subtilis (strain 168)), P80244 | hit rate 1.9% among 340,000 | Potency, µM (titrated, usually from 57.5 µM), for the others: at the highest dose activity change, negative = active; active = well fitted falling curve with a large enough effect; inconclusive = small, poorly fitted or top-dose-only effect; inactive = no such curve, though single readings can be large or run the other way; also: potency is read from the fitted curve at half-maximal effect; the source files actives as falling curves though it sought activators and does not explain the sign; nearly all actives have a fitted effect of over 65% in size; many hits overshoot -100%
Target sequence (P80244 whole entry, looked up): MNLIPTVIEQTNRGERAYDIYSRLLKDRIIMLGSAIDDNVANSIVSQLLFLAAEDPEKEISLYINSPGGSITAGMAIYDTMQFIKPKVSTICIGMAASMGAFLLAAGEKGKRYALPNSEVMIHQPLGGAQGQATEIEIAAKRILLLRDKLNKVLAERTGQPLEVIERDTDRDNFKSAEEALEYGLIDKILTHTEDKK
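Purified B. subtilis ClpP, 10 microg/mL final in Tris/HCl pH8 with KCl, BSA, glycerol and Tween-20, cleaved an Abz/nitrotyrosine-quenched decapeptide. Fluorescence (ex 320, em 430) was read at 0 and 20 min at room temperature. Delta was normalized to 5.8 microM ADEP and DMSO/no-enzyme controls.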
CtBP-E1A blk = inhibitors of CtBP/E1A interaction | hit rate 0.49% among 340,000 | activity change, % (no concentration beside the values) | AlphaScreen GST-E1A/His-CtBP binding, 1536-well; stronger effect = lower value; control for the full effect not named in the record; in the data active means activity change below about -65%; inconclusive means about -30% to -65%; inactive means above about -30%; also: % is scaled to controls: 0 for no effect and ±100 for the full control effect; compound concentration not given in the record
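Protein mix (5X: 125 nM each GST-E1A, His-CtBP) was incubated with pinned compound 2 h at 37 deg C in dark, in 50 mM Tris pH 8.0 buffer with 300 mM NaCl. Glutathione donor and nickel acceptor beads followed; AlphaScreen signal read after 1 h.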
gsp ag = activates gsp, the McCune-Albright syndrome mutation | gsp mutant cells, cAMP HTRF, 30 min; control for the full effect not named in the record | hit rate 0.13% among 340,000 | Potency, µM (series often up to 76.9 µM), for the others: top-dose activation (cAMP increase), actives largely listed as activators | AID 624287; active = well fitted activation curve with a large enough effect; inconclusive = small, poorly fitted or top-dose-only effect, or another doubt; inactive = no such curve, though single readings can be large or run the other way; cell line not stated here;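 also: phosphodiesterase inhibitor Ro 20-1724 added with compounds to block cAMP breakdown; potency is read from the fitted curve at half-maximal effect; nearly all actives have a fitted effect of over 60% in size; about a fifth of the inactives were tested at one dose only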
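Cells in DMEM/10% FBS with G418 were pretreated with compounds in DMSO plus […] (300 uM stock) for 30 min at 37C. cAMP was measured by HTRF (cAMP-d2 plus anti-cAMP antibody-K) after 30 min at room temperature.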
gsp antagonist = antagonists of gsp mutant (McCune-Albright syndrome) | Potency, µM (series often up to 76.9 µM), inactives show at the highest dose activity change, negative = inhibition, usual class: inhibitors | AID 624288 | hit rate 0.4% among 340,000 | gsp-mutant cells, cAMP HTRF, 30 min; control for the full effect not named in the record; active = falling curve of any shape with a large fitted effect; inconclusive = falling curve, mostly with a smaller effect; inactive = flat or rising curve; cell line not stated here;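 also: intracellular cAMP measured with PDE inhibitor Ro 20-1724 present during compound exposure; potency is read from the fitted curve at half-maximal effect; % is scaled to controls: 0 for no effect and ±100 for the full control effect; nearly all actives have a fitted effect of over 65% in size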
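G418-selected cells were plated in DMEM/10% FBS for 16-24 h at 37C, then treated with compounds plus the PDE inhibitor […] (300 uM solution added) for 30 min at 37C. Intracellular cAMP was measured by HTRF after 30 min lysis at room temperature.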
TRPV1 PAM = enhances activation of the human vanilloid receptor TRPV1; TRPV1-expressing cells, Fluo-8 calcium influx, capsaicin EC20 potentiation; host cell line not named in the record; control for the full effect not named in the record; Q8NER1; potentiation, % at 8.33 µM; hit rate 0.02% among 320,000; active means potentiation above 80%; inconclusive means 30% to 80%; inactive means below 30%; also: 0% is about no effect
Target sequence (Q8NER1 whole entry, looked up): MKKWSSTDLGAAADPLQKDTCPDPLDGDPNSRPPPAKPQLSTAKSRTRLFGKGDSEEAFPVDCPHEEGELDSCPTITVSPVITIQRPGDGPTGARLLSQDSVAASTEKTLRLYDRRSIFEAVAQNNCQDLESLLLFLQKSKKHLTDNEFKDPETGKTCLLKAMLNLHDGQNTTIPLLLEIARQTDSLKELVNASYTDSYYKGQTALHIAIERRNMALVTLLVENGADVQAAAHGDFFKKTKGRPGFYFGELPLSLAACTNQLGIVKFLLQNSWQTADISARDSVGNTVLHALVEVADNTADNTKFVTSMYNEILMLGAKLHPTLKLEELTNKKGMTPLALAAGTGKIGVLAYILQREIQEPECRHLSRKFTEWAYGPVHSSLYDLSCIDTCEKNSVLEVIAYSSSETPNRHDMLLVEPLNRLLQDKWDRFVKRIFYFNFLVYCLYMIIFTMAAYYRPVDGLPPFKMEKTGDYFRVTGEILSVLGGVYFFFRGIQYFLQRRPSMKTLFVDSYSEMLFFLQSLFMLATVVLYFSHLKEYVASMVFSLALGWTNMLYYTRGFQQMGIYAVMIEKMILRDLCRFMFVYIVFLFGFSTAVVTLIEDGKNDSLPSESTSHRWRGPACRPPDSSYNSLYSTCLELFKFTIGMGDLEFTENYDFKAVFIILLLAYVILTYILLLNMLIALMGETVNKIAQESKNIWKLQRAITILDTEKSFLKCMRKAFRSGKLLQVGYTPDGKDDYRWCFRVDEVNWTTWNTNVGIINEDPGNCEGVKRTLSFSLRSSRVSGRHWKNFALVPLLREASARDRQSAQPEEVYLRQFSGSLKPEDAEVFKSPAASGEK
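Fluo-8 calcium influx in TRPV1-expressing cells, kinetic read (ex 480/em 520 nm). Compound added and read 3 min for agonist activity, followed by capsaicin at EC20 final and 2 min further read for enhancement.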
Menin-MLL FL inh = menin-MLL binding inhibition, fluorescein peptide. Fluorescence polarization, fluorescein-MLL peptide displacement from menin. FP activity change, % at 61.4 µM. 290,000 tested, under 10 active. AID 1766; inconclusive = falling polarisation curve, or a change in total fluorescence; inactive = total fluorescence flat and polarisation flat or rising; no compound was filed as active; the % refers to the polarisation; negative = inhibition;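 also: % of control where 0% means no effect; inhibitors lower the polarisation; unlabelled MLL peptide was the positive control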
Sfp PPTase inh = blocks B. subtilis Sfp PPTase activity. AID 1490. Q9F4F7. Biochemical Sfp PPTase activity, qHTS. hit rate 3.5% among 310,000. Potency, µM, for the others: max response, negative = inhibition, usual class: inhibitors; active = well fitted inhibition curve with a large enough effect; inconclusive = small, poorly fitted or top-dose-only effect, or another doubt; inactive = no such curve, though single readings can be large or run the other way;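 also: the enzyme is Sfp with the accession as filed and its product quenches rhodamine fluorescence; potency is read from the fitted curve at half-maximal effect; 0% = enzyme reaction without inhibitor and -100% = no enzyme wells; top concentration of the series not given in the record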
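Fluorescence-quenching assay with 15 nM Sfp, 5 uM rhodamine-CoA and 12.5 uM BHQ-2-labelled ybbR peptide in pH 7.6 Hepes/MgCl2 buffer. Enzyme was pre-incubated with compound for 15 min at room temperature. Rate was taken from the 30-min fluorescence change (525/598 nm).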
* hit, by the source's call; ? = inconclusive; nt = not tested or not shown; & = joins results of further samples; [ ] = remark or other dose. A portion of the library; the hit share may differ from the screen's.

Start of the listing, in advance:
SMILES	ClpP mod	CtBP-E1A blk	gsp ag	gsp antagonist	TRPV1 PAM	Menin-MLL FL inh	Sfp PPTase inh
Cc1ccc(-c2nc3ccccc3c(=O)n2-c2ccc(Br)cn2)cc1	-1.7%	1	5%	-4%	-9	-0.5	23%
O=c1[nH]c(=O)n(Cc2ccco2)c(O)c1C=NCc1ccco1	-1.3%	-1	-1%	10%	4	?	25µM*

This part in full, repeating the preview:
SMILES	ClpP mod	CtBP-E1A blk	gsp ag	gsp antagonist	TRPV1 PAM	Menin-MLL FL inh	Sfp PPTase inh
Cc1ccc(-c2nc3ccccc3c(=O)n2-c2ccc(Br)cn2)cc1	-1.7%	1	5%	-4%	-9	-0.5	23%
O=c1[nH]c(=O)n(Cc2ccco2)c(O)c1C=NCc1ccco1	-1.3%	-1	-1%	10%	4	?	25µM*
COc1ccccc1N=C1SCCCN1C	0.7%	5	-12%	10%	2	1.7	6%
CCCCn1c(O)c(C(CC)=NCCN2CCCCC2)c(=O)[nH]c1=O	-0.9%	2	4%	-11%	-11	3.2	-12%
Nc1ccc(Cl)c(Cl)c1	nt	1	-6%[15.4 µM]	2%	nt	nt	nt
CN1CCCN(C(=O)COc2cccc(C(F)(F)F)c2)CC1	0.6%	6	-40%[inhibitor]	14%	-11	nt	16%
COC(=O)C1=C(c2ccc3ccccc3c2)C[C@@H]2CC[C@H]1N2C(=O)N1CCC(C)CC1	0.4%	nt	-41%[inhibitor]	-5%	-6	nt	nt
O=c1oc2ccccc2c(O)c1C(c1ccc([N+](=O)[O-])cc1)c1c(O)c2ccccc2oc1=O	nt	-19	5%	-10%	3	?	-91%
N=C1c2ccccc2CN1NC(=O)c1ccccc1	nt	16	-5%[15.4 µM]	-8%	5	-0.8	1%
O=C(N/N=C/c1c(O)n(Cc2ccco2)c(=O)[nH]c1=O)c1ccccc1O	nt	-89*	-8%[15.4 µM]	15%	-2	?	17%
O=[N+]([O-])/C(Cl)=C1\NCCN1Cc1ccc(Cl)nc1	2.5%	5	-16%	-4%	-8	-1.4	12%
COc1ccc2o/c(=N\O)c(C(=O)Nc3ccc(C)cc3)cc2c1	0.0%	nt	-14%	-20%	14	0.6	?
CC(C)(C)C(=O)NC1CCSC1=O (stereo unspecified)	nt	nt	nt	nt	2	1.0	16%
OC1/C(=C/c2ccccc2C(F)(F)F)N2CCC1CC2 (stereo unspecified)	nt	3	-24%	6%	-8	0.8	20%
CC(C)N(CCC(C(N)=O)(c1ccccc1)c1ccccn1)C(C)C (stereo unspecified)	-1.3%&0.5%	1&5	nt	3%&-2%	5	3.5&2.5&-2.5&-0.9	19%&2%
CN1C(=O)/C(=C/c2ccc(N3CCCCCC3)o2)C(=O)NC1=S	0.9%	0	9%	6%	4	?	50µM*
CC(C)[C@H]1C(=O)O[C@H](C(C)C)C(=O)N(C)[C@@H](C(C)C)C(=O)O[C@H](C(C)C)C(=O)N(C)[C@@H](C(C)C)C(=O)O[C@H](C(C)C)C(=O)N1C	-4.0%	7	nt	?	-16	0.1	13%
COC(=O)C1=C(c2ccc(F)cc2F)C[C@@H]2CC[C@H]1N2C(=O)NCc1ccc2c(c1)OCO2	5.0%	-3	-27%	-1%	-7	nt	nt
COC(=O)Cc1cnc(NC(=O)C2C3CCC(C3)C2C(=O)O)s1 (stereo unspecified)	1.8%	-2	?	10%	6	3.2	11%
CCN(CC)C(=O)c1ccc(NC(=O)Nc2ccccc2F)cc1	0.3%	nt	3%	-12%	3	-0.6	19%
Cc1cc(OCC(=O)N2CCC(C(=O)O)CC2)c2c3c(c(=O)oc2c1)CCCC3	4.5%	9	nt	3%	3	-2.4	23%
C[N+]12CCC(CC1)C(C(O)(c1cccc(Cl)c1)c1cccc(Cl)c1)C2 (stereo unspecified)	nt	-3	11%[15.4 µM]	4%	11	-2.4	-7%
CC(C)CS(=O)(=O)C1=NN2C(=N)/C(=C\c3ccc(OC(=O)c4ccco4)cc3)C(=O)N=C2S1	1.1%	0	?	-46%	-5	nt	-5%
Nc1ccccc1C(=O)OC1CSC1	28µM*	9	-35%	-11%	-26	2.5	9%
Cc1sc2c(c1C)C(c1ccc(C(C)(C)C)cc1)=NCC(=O)N2CC(=O)Nc1nccs1	1.2%	-5	-4%	-20%	-5	1.1	13%
CNC(=S)N(C)CCc1cc2c(c(OC)c1C=C1C(=O)NC(=O)NC1=O)OCO2	nt	5	13%	11%	23	6.2	?
CCOC(=O)[C@]12Cc3cc(C)ccc3[C@H]1N(Cc1ccccc1)C(=O)c1ccccc12	-1.6%&1.9%	-4	nt	?	nt	nt	nt
CCCN(CC#CCO)CCC	-11%	7	-22%	10%	-17	8.9	15%
CCOc1ccc(N=Cc2c(O)n(C(C)(C)C)c(=O)[nH]c2=O)cc1	137%	1	21%	11%	-7	3.6	14%
Cc1cccc(N2CCN(C(=O)C34CC5CC(CC(C5)C3)C4)CC2)c1C	0.7%	10	-41%[inhibitor]	-1%	2	2.9	10%
NCCc1nc2ccccc2s1	-0.5%	0	-22%	8%	-3	1.9	2%
C=CCn1c(C)c(C=C2C(=O)NC(=O)NC2=O)c2ccccc21	-2.2%	nt	5%	-5%	?	?	-8%
[N-]=[N+]=CC(=O)OC[C@H](N)C(=O)O	0.2%	11	nt	-1%	3	-3.8	-2%
CC[C@H]1CC2CN3CCc4c([nH]c5cc(OC)ccc45)[C@](C(=O)OC)(C2)[C@H]13	2.3%	-24	nt	2%	nt	nt	nt
CC(=O)C1=C(C)OC(N)=C(C(=O)OC(C)C)C12C(=O)Nc1ccccc12 (stereo unspecified)	-0.8%	-7	-14%	-4%	-1	-0.2	13%
O=c1[nH]c2ccccc2n1C1CCN(Cc2ccc(-c3[nH]c4cc5ncnc5cc4nc3-c3ccccc3)cc2)CC1	-16%	-9	nt	nt	nt	-2.2	-14%

Looked up above:
CCCCn1c(O)c(C(CC)=NCCN2CCCCC2)c(=O)[nH]c1=O in CtBP-E1A blk reads 2
Cc1ccc(-c2nc3ccccc3c(=O)n2-c2ccc(Br)cn2)cc1 in Sfp PPTase inh reads 23%
CCOC(=O)[C@]12Cc3cc(C)ccc3[C@H]1N(Cc1ccccc1)C(=O)c1ccccc12 in ClpP mod reads -1.6%&1.9%
CCCN(CC#CCO)CCC in Menin-MLL FL inh reads 8.9
CN1CCCN(C(=O)COc2cccc(C(F)(F)F)c2)CC1 in Sfp PPTase inh reads 16%

Following part.
SMILES	ClpP mod	CtBP-E1A blk	gsp ag	gsp antagonist	TRPV1 PAM	Menin-MLL FL inh	Sfp PPTase inh
CCC(C)C(=O)N[C@@H](c1ccccc1)[C@@H](O)C(=O)O[C@H]1C[C@@]2(O)[C@@H](OC(=O)c3ccccc3)C3[C@](C)(C(=O)[C@H](OC(C)=O)C(=C1C)C2(C)C)[C@@H](O)C[C@H]1OC[C@@]31OC(C)=O (stereo partly specified)	-0.9%	2	-23%	-3%	17	4.4	4%
COc1cccc(CNCCc2c[nH]c3ccccc23)c1OC	nt	-2	13%[15.4 µM]	-5%	-3	-2.9	9%
CCC(C(=O)N1CCC2(CC1)OCCO2)c1ccccc1 (stereo unspecified)	0.3%	10	19%	6%	4	-0.1	4%
COC(=O)OCC12CCC(O1)C1(C)C(=O)OCC21 (stereo unspecified)	-1.2%	-3	8%	16%	-10	3.4	13%
CCC(=O)N1N=C2C3CCN(CC3)C2C1c1ccc(C)cc1 (stereo unspecified)	2.0%	-7	-3%	3%	25	-1.5	7%
CC(C(=O)c1c[nH]c2ccccc12)N1CCSCC1 (stereo unspecified)	-0.3%	-3	21%	13%	-6	2.4	21%
COc1cccc(N2C(=O)NC(=O)/C(=C\c3cn(C)c4ccccc34)C2=O)c1	1.2%	nt	-18%	-5%	10	?	?
O=C(CSC1c2ccccc2-c2ccccc21)N/N=C/c1ccccc1	1.2%	51	0%	-12%	9	1.1	12%
CCOc1ccc(-n2c(-c3ccoc3)nc3ccccc3c2=O)cc1	-1.7%	2	-4%	6%	23	5.9	-27%
C[C@H]1CN([C@@H](C)CO)C(=O)CCCn2nncc2CO[C@H]1CN(C)C(=O)Nc1ccc(N2CCCCC2)cc1	-1.4%	-24	14%	nt	nt	nt	nt
Cc1ccc2c(c1)C1CN(C)CCC1N2C(=O)Cn1nnc(-c2ccccc2F)n1 (stereo unspecified)	0.0%	-5	-24%	7%	14	-2.4	14%
O=C1N(CN2CCOCC2)c2ccccc2C1(O)c1c[nH]c2ccccc12 (stereo unspecified)	0.6%	2	2%	12%	3	2.0	-1%
COC(=O)c1ccccc1N=Cc1c(O)[nH]c(=O)[nH]c1=O	-2.5%	nt	21%	6%	2	-3.9	2%
CCOP(=O)(Cc1cc(C(C)=O)c(C)o1)OCC	-0.4%	-13	-29%	24%	7	-9.5	?
Cn1nc(-c2ccc(OCC(=O)N3CCN(Cc4ccccc4)CC3)cc2)c2ccccc2c1=O	-21%&-13%	-19&-1	8%&-26%	?	?	3.2&4.7	13%&17%
O=C(c1n[nH]c(=O)c2ccccc12)N1CCC2(CC1)OCCO2	nt	20	-2%[15.4 µM]	-6%	1	-2.2	10%
COc1ccc2[nH]c(C)c(CCN3CCC(=O)C(C)C3C)c2c1 (stereo unspecified)	-12%	-3	-32%[inhibitor]	3%	nt	-6.3	5%
CCN1CCN(c2ccc([N+](=O)[O-])cc2C=C2C(=O)NC(=O)NC2=O)CC1	0.6%	-18	-10%	6%	23	5.6	45µM*
CCOCC1(CCc2ccccc2)C(=O)NC(=S)NC1=O	-1.9%	-5	-2%[15.4 µM]	8%	nt	nt	nt
Cc1nc2ncnn2c(C)c1CCC(=O)N1CCC2(CC1)OCCO2	-1.2%	3	?	13%	2	1.3	14%
CCOc1cc2c(cc1OCC)-n1cccc1C(c1cc(C)c(OC)cc1C)NC2 (stereo unspecified)	-3.6%	nt	9%	5%	-9	-6.8	?

Screening results deposited in PubChem by National Center for Advancing Translational Sciences (NCATS).
